Compound activity (PubChem BioAssay)
TRPV1 potentiator: enhances activation of the human vanilloid receptor TRPV1 | Q8NER1 | TRPV1-expressing cells, Fluo-8 calcium influx, capsaicin EC20 potentiation; host cell line not named in the record; control for the full effect not named in the record | potentiation, % at 8.33 µM | 0.02% of 320,000 active | AID 540277; active means potentiation above 80%; inconclusive means 30% to 80%; inactive means below 30%; also: 0% is about no effect
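Cells expressing TRPV1 were dye-loaded with Fluo-8 and read kinetically: 10 s baseline, 3 min after compound (agonist portion), then 2 min after EC20 capsaicin (allosteric enhancer portion). Calcium-bound dye fluorescence at 480/520 nm.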
D2 PAM: human D2 receptor positive allosteric modulation | P14416 | DiscoveRx D2 beta-arrestin cells, luminescence, 90 min; 100% = 57 uM dopamine signal | potentiation, % (test concentration not listed) | 0.23% of 360,000 active | AID 624464; active = potentiation of 50% or more; inconclusive = 30% to 50%; inactive = 30% or less;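 also: compound concentration not given in the record; tested on top of an EC20 dose of dopamine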
Target sequence (P14416 whole entry, looked up): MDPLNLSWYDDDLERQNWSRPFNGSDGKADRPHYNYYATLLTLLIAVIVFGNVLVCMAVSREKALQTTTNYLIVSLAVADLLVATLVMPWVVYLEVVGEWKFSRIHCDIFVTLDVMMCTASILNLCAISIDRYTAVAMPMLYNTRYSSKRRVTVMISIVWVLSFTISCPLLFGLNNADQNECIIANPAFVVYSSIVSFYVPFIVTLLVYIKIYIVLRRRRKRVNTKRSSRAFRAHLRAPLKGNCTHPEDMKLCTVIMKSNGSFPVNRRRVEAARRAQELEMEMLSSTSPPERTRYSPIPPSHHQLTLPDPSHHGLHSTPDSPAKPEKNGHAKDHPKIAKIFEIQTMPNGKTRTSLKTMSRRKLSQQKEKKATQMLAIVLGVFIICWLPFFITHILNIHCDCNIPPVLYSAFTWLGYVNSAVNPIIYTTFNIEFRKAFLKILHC
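PathHunter D2 cells, attached overnight at 37 deg C, received compound in DMSO plus dopamine at EC20 (50 nM final) for 90 min at 37 deg C. Beta-arrestin recruitment was read as luminescence after 1 h with detection reagent at ambient temperature.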
gsp agonist: activates gsp, the McCune-Albright syndrome mutation; AID 624287; 0.13% of 340,000 active; Potency, µM (series often up to 76.9 µM), for inactives: at the highest dose activation (cAMP increase), hits mostly activators; gsp mutant cells, cAMP HTRF, 30 min; control for the full effect not named in the record; active = well fitted activation curve with a large enough effect; inconclusive = small, poorly fitted or top-dose-only effect, or another doubt; inactive = no such curve, though single readings can be large or run the other way; cell line not stated here;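 also: phosphodiesterase inhibitor Ro 20-1724 added with compounds to block cAMP breakdown; potency is read from the fitted curve at half-maximal effect; nearly all actives have a fitted effect of over 60% in size; about a fifth of the inactives were tested at one dose only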
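Cells in DMEM/10% FBS with G418 were pretreated with compounds in DMSO plus […] (300 uM stock) for 30 min at 37C. cAMP was measured by HTRF (cAMP-d2 plus anti-cAMP antibody-K) after 30 min at room temperature.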
Sfp inh: Sfp phosphopantetheinyl transferase inhibition; Biochemical Sfp PPTase activity, qHTS; AID 1490; Potency, µM, for the others: max response, negative = inhibition, actives largely listed as inhibitors; 3.5% of 310,000 active; active = well fitted inhibition curve with a large enough effect; inconclusive = small, poorly fitted or top-dose-only effect, or another doubt; inactive = no such curve, though single readings can be large or run the other way;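 also: the enzyme is Sfp with the accession as filed and its product quenches rhodamine fluorescence; potency is read from the fitted curve at half-maximal effect; 0% = enzyme reaction without inhibitor and -100% = no enzyme wells; top concentration of the series not given in the record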
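With Hepes-Na pH 7.6 buffer containing 10 mM MgCl2, Sfp (15 nM) modified BHQ-2-YbbR (12.5 uM) using rhodamine-CoA (5 uM). Two reads 30 minutes apart at 525/598 nm yielded each well's rate.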
Menin-MLL FL inh: displaces fluorescein MLL peptide from human menin; Fluorescence polarization, fluorescein-MLL peptide displacement from menin; FP activity change, % at 61.4 µM; 290,000 tested, under 10 active; AID 1766; inconclusive = falling polarisation curve, or a change in total fluorescence; inactive = total fluorescence flat and polarisation flat or rising; no compound was filed as active; the % refers to the polarisation; negative = inhibition;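 also: % of control where 0% means no effect; inhibitors lower the polarisation; unlabelled MLL peptide was the positive control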
gsp antag: antagonists of gsp mutant (McCune-Albright syndrome); gsp-mutant cells, cAMP HTRF, 30 min; control for the full effect not named in the record; Potency, µM (top dose mostly 76.9 µM), without a hit: at the highest dose activity change, negative = inhibition, actives largely listed as inhibitors; 0.4% of 340,000 active; active = falling curve of any shape with a large fitted effect; inconclusive = falling curve, mostly with a smaller effect; inactive = flat or rising curve; cell line not stated here;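 also: intracellular cAMP measured with PDE inhibitor Ro 20-1724 present during compound exposure; potency is read from the fitted curve at half-maximal effect; % is scaled to controls: 0 for no effect and ±100 for the full control effect; nearly all actives have a fitted effect of over 65% in size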
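Cells in G418 medium, seeded 16-24 h, 37C; buffer exchange to DPBS + 1 mM CaCl2, 0.5 mM MgCl2, 0.05% BSA; cpds in DMSO + […] (300 uM stock), 30 min 37C; HTRF cAMP detection.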
ClpP mod: qHTS Assay for Activators of ClpP. ATP-dependent Clp protease proteolytic subunit (Bacillus subtilis (strain 168)), P80244. purified B. subtilis ClpP, FRET peptide cleavage, 20 min. Potency, µM (titrated, usually from 57.5 µM), for inactives: at the highest dose activity change, negative = active. 1.9% of 340,000 active. AID 651965, 2013; active = well fitted falling curve with a large enough effect; inconclusive = small, poorly fitted or top-dose-only effect; inactive = no such curve, though single readings can be large or run the other way; also: potency is read from the fitted curve at half-maximal effect; the source files actives as falling curves though it sought activators and does not explain the sign; nearly all actives have a fitted effect of over 65% in size; many hits overshoot -100%
Target sequence (P80244 whole entry, looked up): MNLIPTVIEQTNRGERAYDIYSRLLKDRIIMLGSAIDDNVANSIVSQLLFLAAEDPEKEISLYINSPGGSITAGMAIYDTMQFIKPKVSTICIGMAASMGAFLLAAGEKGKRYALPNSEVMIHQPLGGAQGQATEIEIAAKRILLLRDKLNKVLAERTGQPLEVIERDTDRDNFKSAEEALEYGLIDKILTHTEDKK
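Buffer: 100 mM Tris/HCl pH8, 100 mM KCl, 0.05% low protease BSA, 2.5% glycerol, 0.01% Tween-20. ClpP 10 microg/mL final; 20 min RT; delta FRET normalized to ADEP and DMSO controls.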
* = called active by the depositor; ? = inconclusive; / = not tested or not shown; & = joins results of further samples; [ ] = remark or other dose. Hits appear at their usual frequency, and some 5.1% of all compounds hit somewhere here.

Structure,gsp agonist,ClpP mod,Sfp inh,D2 PAM,Menin-MLL FL inh,TRPV1 potentiator,gsp antag
O=C(CCC(=O)N1CCOc2ccc(Cl)cc21)NCCCN1CCN(Cc2ccccc2)CC1,-9%,0.9%,0%,-13,4.2,6,16%
Cc1cccc(N2CCN(C(=O)c3ccccc3NC(=O)C3CC=CCC3C(=O)O)CC2)c1 (stereo not given),?,0.5%,11%,-7,4.6,5,2%
COc1ccccc1NS(=O)(=O)c1ccc(NC(=O)c2ccccn2)cc1,13%,-1.7%,/,6,/,-16,-8%
COC(=O)C(C)Sc1ncnc2c1nnn2-c1ccc(F)cc1 (stereo not given),5%,-1.0%,6%,-9,2.6,-4,-15%
CCn1c(=O)cc(SCC(=O)Nc2cccc(C)n2)c2ccccc21,27%,-20%,2%,-2,5.0,11,?
COc1cccc(Cn2cnc3c(N)c(C)c(C)cc32)c1,-42%,/,8%,-1,1.5,?,6%
O=C(NC1CCCC1)c1ccc(CS(=O)(=O)c2cccc(C(F)(F)F)c2)o1,9%,0.9%,0%,10,0.5,-9,-7%
CCN(C(=O)c1ccc(S(=O)(=O)N2CCC(C)CC2)cc1)C1CCS(=O)(=O)C1 (stereo not given),-2%,0.9%,/,-10,/,5,-7%
Cc1ccc(/C=N/N2CCOCC2)s1,?,/,10%,-6,-1.5,14,4%
Cc1ccc(N2C(=O)CC(Nc3ccccc3)C2=O)cc1 (stereo not given),9%,-0.7%,29%,7,-2.3,-13,4%
CCOc1cc(C(=O)OCC(=O)Nc2ncc(Cl)c(C)c2Cl)ccc1OCC(=O)N1CCOCC1,-26%,1.8%,5%,-5,12,2,?
COc1cccc2cc(C(=O)NCCC3=CCCCC3)c(=O)oc12,17%[15.4 µM],/,-6%,-7,-4.6,17,-7%
CC1Cc2nc(SCC(=O)NC3CCCCC3)n(C)c(=O)c2S1 (stereo not given),-37%[inhibitor],-0.7%,20µM*,11,6.5,2,-18%
CCCCNC(=O)c1onc(CSc2ccccc2)c1C(=O)O,/,0.8%,2%,3,-2.9,?,-6%
Cc1nn2c(CN(C(=O)CN3CCOCC3)c3ccccc3)nnc2c2ccccc12,50%[15.4 µM],-0.3%,14%,-8,1.0,-5,16%
CC1CN(C(=O)COC(=O)Cc2ccc(Cl)cc2)CC(C)O1 (stereo not given),-8%,-0.1%,/,3,/,13,13%
COc1ccc(NC(=O)C2CC(c3ccccc3O)=NO2)cc1OC (stereo not given),-33%[inhibitor],/,19%,-8,-1.6,4,7%
CSc1nc(-c2ccccc2)c(C#N)c(=O)[nH]1,?,-3.1%,23%,-6,7.3,2,16%
Cc1ccc(S(=O)(=O)c2c(C)cc(C)nc2N2CCCCC2)cc1,-14%[15.4 µM],-2.9%,-13%,3,1.0,5,?
COC(=O)c1sccc1NC(=O)CC1C(=O)NCCN1C(=O)c1c(F)cccc1Cl (stereo not given),35%[15.4 µM],-11%,-2%,-3,2.2,6,4%
CC(C)c1nccn1S(=O)(=O)c1cccc([N+](=O)[O-])c1,0%,-2.2%,-9%,-1,2.7,8,11%
CCOc1cc(/C=N/NC(=O)CSc2nncn2C)ccc1OC(=O)c1ccc(Cl)cc1,-9%[15.4 µM],2.8%,-21%,0,4.5,1,-5%
CNCCc1ccccn1,/,0.0%,-24%&3%&16%,-2,-0.3,-5,0%
CCC(C)c1ccccc1N1CC(C(=O)Nc2ccc(S(=O)(=O)N3CCOCC3)cc2)CC1=O (stereo not given),?,-1.2%,/,2,/,1,-9%
O=C(NCc1ccc(F)cc1)C1CCN(S(=O)(=O)c2ccc3c(c2)OCCCO3)CC1,?,-0.7%,5%,5,2.9,26,-5%
C=CCN1CC(c2nc3ccccc3n2Cc2ccccc2)CC1=O (stereo not given),25%,-0.5%,0%,0,-0.7,-23,-7%
Brc1cccc(CN2CCCCCC2)c1,-14%,0.7%,2%,-4,1.8,-10,3%
O=C(Nc1cccc(Cl)c1)Nc1nccs1,39%,-4.1%,50µM*,-8,5.2&-2.4,-13&-12,?
COc1ccc2c(c1)OC[C@H]1[C@H]2N2C(=O)c3cc(Br)ccc3NC(=O)[C@@]2(C)[C@H]1c1ccccc1,/,-3.0%,/,5,/,18,-2%
O=C(Cc1cccs1)N[C@@H]1c2ccccc2CC[C@@H]1OCc1ccccc1,/,-0.3%,/,-9,/,/,4%
CSc1ccc(CCCCCCOC(=O)C(C)(C)C)cc1,19%,-0.9%,/,-2,/,11,-6%
Cc1cc(C)c2c(c1)cc(C)c1nnc(SCC(=O)Nc3ccc(S(=O)(=O)N4CCCCC4)cc3)n12,-13%,-8.8%,12%,-9,1.5,4,-6%
O=C(COc1coc(CN2CCN(c3ccccc3)CC2)cc1=O)NC1CCCCC1,29%,-3.4%,/,-7,/,4,4%
COc1ccc(CC(C)Nc2cccc(SC)c2)cc1 (stereo not given),-14%,0.5%,-32%,2,3.6,-10,-4%
CCOc1ccccc1NC(=O)CSc1nnc(Cc2cccn2C)n1-c1ccc(F)cc1,-129%[inhibitor],3.3%,?,-5,7.9,15,-11%
OCC(Cc1ccc2c(c1)OCO2)C(CO)Cc1ccc2c(c1)OCO2 (stereo not given),-120%[inhibitor],0.9%,?,0,1.3,15,4%
COc1ccc(NC(=O)c2oc3ccccc3c2C)c(OC)c1,17%,139%,0%,-9,4.7,?,0%
c1ccc2nc3c(ccc4ccccc43)cc2c1,-3%[15.4 µM],?,/,-12,/,/,0%
C/C(=N\NC(=O)Cc1c(Cl)cccc1Cl)c1cccnc1,1%,0.3%,0%,-2,-0.1,6,6%
CC1C(=O)N(Cc2cn(CCC3OCCO3)nn2)CCS(=O)(=O)N1Cc1ccc(-c2ccc(Cl)c(Cl)c2)cc1 (stereo not given),-44%[inhibitor],1.9%,/,-6,/,/,/
Cc1nc2ccc(S(=O)(=O)N(C)CC(=O)Nc3ccccc3F)cc2s1,-18%,-0.6%,15%,-8,0.5,-14,8%
O=S(=O)(NCc1ccc(F)cc1)c1ccc(Br)cc1Br,/,1.2%&3.0%,/,1,/,9,-5%
Cc1ccc(S(=O)(=O)NCC(=O)NNC(=O)c2ccc(Br)cc2)cc1C,10%,/,/,-4,/,/,-26%
N#Cc1cnc(Oc2ccc(Cl)cc2)nc1N,-76%[inhibitor],0.0%,5%,-3,1.5,-5,3%
CCc1cc(C(=O)O)c(NC(=O)/C=C/c2ccc(OC)c(OC)c2)s1,?,0.9%,10%,1,1.2,12,?
CCOc1ccc(CCNC(=O)C2CC(=O)N(CCc3ccc(OC)c(OC)c3)C2)cc1OCC (stereo not given),1%,-2.3%&-1.4%,/,13,/,-36,0%
COc1ccc(N2CCOCC2)c(NC(=O)c2ccc(Br)o2)c1,?,-12%,-8%,11,/,12,-9%
CCc1ccccc1NC(=O)c1ccc2nc(N3CCOCC3)sc2c1,-2%,-4.5%,7%,-19,-5.5,-8,-6%
COc1ccc(CC(=O)OCC(=O)Nc2ccc3[nH]c(=O)[nH]c3c2)cc1,?,-19%,/,?,/,-10,6%
CN(C)CCCN1C(=O)C(=O)/C(=C(/O)c2ccncc2)C1c1cccc(Br)c1 (stereo not given),23%,-3.3%,-1%,-16,2.4,?,2%

(more compounds)
Structure,gsp agonist,ClpP mod,Sfp inh,D2 PAM,Menin-MLL FL inh,TRPV1 potentiator,gsp antag
CCOC(=O)C1(CC)NC(c2ccco2)C2C(=O)N(CC)C(=O)C21 (stereo not given),1%,-1.9%,14%,-12,0.2,-12,0%
CC1CN(S(=O)(=O)c2cccc(C(=O)NCc3ccccn3)c2)CC(C)O1 (stereo not given),-3%,0.2%,/,-3,/,/,4%
S=C(NCc1cccnc1)c1ccccc1,7%,/,3%,-11,-0.9,-1,7%
CCOC(=O)c1nnn(-c2nonc2N)c1CN(CC)c1ccccc1,-18%,-1.9%,20%,8,-1.6,-12,-12%
O=C(Cn1cccc1C(=O)c1ccccc1)NCc1cccs1,-21%,0.1%,5%,-12,4.0,/,4%
Cc1ccc(NC(=O)c2cccc(NC(=O)CC3SC(N4CCCCC4)=NC3=O)c2)nc1 (stereo not given),15%[15.4 µM],-0.5%,/,19,/,4,-2%
CCCOc1ccccc1OCC(=O)N1CCN(S(=O)(=O)c2ccc(Cl)cc2)CC1,-44%[inhibitor],-0.3%,/,-2,/,-1,-5%
O=C(CSc1ncnc2ccccc12)NCC(=O)c1ccccc1,-7%[15.4 µM],/,-24%,-4,-0.9,7,8%
Cc1ccc(Sc2nc(C)c([N+](=O)[O-])c(C)c2C#N)cc1,7%[15.4 µM],/,-3%,1,1.1,9,-8%
COc1ccc(S(=O)(=O)N(C)C[C@@H]2Oc3cc(C#CC4CCCCC4)ccc3S(=O)(=O)N([C@@H](C)CO)C[C@@H]2C)cc1,-95%[inhibitor],-5.9%,/,-11,/,/,/
CCCCn1c(N)c(N(CC(C)C)C(=O)CSc2ccc([N+](=O)[O-])cc2)c(=O)[nH]c1=O,4%[15.4 µM],-3.1%,/,-1,/,3,0%
CCOc1ccc(NC(=O)CN(C)C(=O)c2ccncc2)cc1OCC,21%,0.0%,?,-6,/,?,5%
C=CC(C)(O)CCCC(C)CCCC(C)CCCC(C)C (stereo not given),/,0.9%,12%,1,?,-2,11%
O=C(NC1CCCCC1)Oc1cc2oc(=O)sc2cc1Br,15%[15.4 µM],-0.1%,16µM*,6,0.3,11,1%
C=C1SC(=Nc2ccccc2Cl)N(C(=O)c2sc3ccccc3c2Cl)C12CCCCC2,/,/,-9%,/,-2.6,?,/
NC(=O)c1ccsc1NC(=O)C1CCCCC1,1%,1.4%,7%,-5,4.0,11,3%
CCCNC(=O)C[C@@H]1C[C@@H]2c3cc(NS(=O)(=O)c4ccc(OC)cc4)ccc3O[C@@H]2[C@@H](CO)O1,?,-5.8%,/,-9,/,/,/
COc1cccc(NC(=O)c2ccc(S(=O)(=O)NCc3cccnc3)cc2)c1,-1%[15.4 µM],-13%,14%,-12,/,3,10%
CCN(c1ccccc1)S(=O)(=O)c1cccc(C(=O)NCc2ccncc2)c1,-3%[15.4 µM],/,/,-7,/,3,-4%
